# Screens as filed in PubChem.
# SARS PLpro yeast – SARS-CoV PLP inhibition in yeast | actives 0.19% (n = 330,000) | S. cerevisiae expressing SARS-CoV PLpro, growth rescue; control for the full effect not named in the record | Potency, µM (highest dose often 32.9 µM), without a hit: at the top dose activity, positive = growth rescue; further: 0% is about no effect; nearly all actives have a fitted effect of over 55% in size; growth read by luminescence after 48 h
# MARV entry inh – blocks Marburg virus binding to or entry into cells; actives 1.8% (n = 300,000); Potency, µM (doses to about 37.8 µM), for inactives: at the highest dose activity change, negative = inhibition, most hits filed as inhibitors; Marburg virus pseudotyped entry inhibition, cell reporter; control for the full effect not named in the record; about a third of the inactives were read at about 46 µM; active = well fitted inhibition curve with a large enough effect; inconclusive = small, poorly fitted or top-dose-only effect, or effect the other way; inactive = flat fitted curve, though single readings scatter; tested in HEK293 cells; about a fifth of its hits are not listed in these tables; further: on the % scale 0 is the no-effect control and ±100 the full control effect; luciferase read-out
# RE007 growth inh – less growth of the S. pombe RE007 Vpr strain; Potency, µM (highest dose often 92.2 µM), for the others: at the highest dose activity change, negative = less growth; AID 651644; actives 0.21% (n = 360,000); S. pombe RE007 Vpr strain, BacTiter-Glo ATP luminescence, 24 h; control for the full effect not named in the record; active = well fitted falling curve with a large enough effect; inconclusive = small, poorly fitted or top-dose-only effect; inactive = no such curve, though single readings can be large or run the other way;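 further: on the % scale 0 is the no-effect control and ±100 the full control effect; nearly all actives have a fitted effect of over 50% in size; the assay follows cell death caused by Vpr and the record does not say whether a fall means rescue or toxicity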
#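 Fission yeast strain RE007, carrying one chromosomally integrated HIV-1 vpr copy, was seeded at OD 0.01 in PMG+AL medium with 23 nL pinned compound. After 24 h at 30 °C and 99% humidity, viability was read by BacTiter-Glo luminescence.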
# Lassa entry inh – inhibitors of Lassa virus binding or cell entry | Lassa virus pseudotype entry inhibition, cell reporter; control for the full effect not named in the record | Potency, µM (series often up to 37.9 µM), inactives show at the highest dose activity change, negative = inhibition, hits mostly inhibitors | actives 1.2% (n = 300,000); active means well fitted inhibition curve with a large enough effect; inconclusive means small, poorly fitted or top-dose-only effect, or effect the other way; inactive means flat fitted curve, though single readings scatter; tested in HEK293 cells; further: on the % scale 0 is the no-effect control and ±100 the full control effect; nearly all actives have a fitted effect of over 50% in size; luciferase read-out
# NS1 inh – inhibitors of influenza NS1 protein function; S. cerevisiae slowed by influenza A NS1, growth recovery by OD600; Potency, µM (doses to about 46.1 µM), without a hit: top-dose activity, positive = more growth; actives 0.4% (n = 270,000); AID 2326; further: actives are rising curves; nearly all actives have a fitted effect of over 50% in size
#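 Growth recovery, yeast-based: influenza A NS1 expressed in S. cerevisiae causes slow growth, and suppressors are detected by OD600. The parent strain without NS1 is used as positive control.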
# Cruzain noTriton – blocks cruzain activity in detergent-free assay; purified cruzain, Z-FR-AMC fluorescence, no detergent; Potency, µM, for the others: max response, negative = inhibition, usual class: inhibitors; actives 2.3% (n = 200,000); active means well fitted curve in the direction sought with a large enough effect; inconclusive means small, poorly fitted or top-dose-only effect, or another doubt; inactive means no such curve, though single readings can be large; an effect the other way counts as inactive or inconclusive;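 further: plate controls were enzyme without inhibitor for no effect and buffer without enzyme for full effect; nearly all actives have a fitted effect of over 40% in size; top concentration of the series not given in the record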
# Target sequence (P25779 123-467 limits assumed): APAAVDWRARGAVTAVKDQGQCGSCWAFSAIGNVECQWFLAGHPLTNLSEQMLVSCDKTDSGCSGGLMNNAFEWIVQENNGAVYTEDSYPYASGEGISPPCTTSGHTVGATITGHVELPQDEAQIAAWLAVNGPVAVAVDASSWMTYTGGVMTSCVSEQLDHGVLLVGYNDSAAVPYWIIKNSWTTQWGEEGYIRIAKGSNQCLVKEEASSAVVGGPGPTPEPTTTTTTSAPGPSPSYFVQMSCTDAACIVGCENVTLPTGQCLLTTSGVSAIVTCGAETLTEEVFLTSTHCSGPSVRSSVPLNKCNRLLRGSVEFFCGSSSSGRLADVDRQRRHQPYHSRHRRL
#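 Purified cruzain at 1.5 nM, pre-incubated 15 min with compound at room temperature in 100 mM sodium acetate pH 5.5, 5 mM DTT, 0.00005% Triton X-100. Reaction started with 2 uM Z-FR-AMC; AMC fluorescence increase over 60 s gives rate.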
# StopGo reporter – FMDV 2A StopGo reporter, luciferase signal; human cells with a luciferase reporter of 2A StopGo recoding; control for the full effect not named in the record; Potency, µM (series often up to 57.9 µM), for the others: top-dose signal change, negative = less light; AID 1159524; actives 1.2% (n = 410,000); active = well fitted falling curve with a large enough effect; inconclusive = small, poorly fitted or top-dose-only effect; inactive = no such curve, though single readings can be large or run the other way; tested in HEK293T cells; further: on the % scale 0 is the no-effect control and ±100 the full control effect; nearly all actives have a fitted effect of over 45% in size; luciferase light after 4 h
# Cruzain Triton – blocks cruzain activity in presence of Triton detergent; P25779; purified cruzain, Z-FR-AMC fluorescence, 0.01% Triton; Potency, µM, for the others: max response, negative = inhibition, most hits filed as inhibitors; actives 0.43% (n = 200,000); AID 1478; active means well fitted curve in the direction sought with a large enough effect; inconclusive means small, poorly fitted or top-dose-only effect, or another doubt; inactive means no such curve, though single readings can be large; an effect the other way counts as inactive or inconclusive;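 further: plate controls were neutral wells for no effect and buffer without enzyme for full effect; nearly all actives have a fitted effect of over 40% in size; top concentration of the series not given in the record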
#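 15 min RT preincubation of 1.5 nM cruzain with compound, then 2 uM Z-FR-AMC added; kinetic AMC fluorescence, 60 s delta. Triton X-100 0.01%, pH 5.5.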
# * marks the source's active call; other numbers are inactive results; ? = inconclusive; . = not tested or not shown; & = joins results of further samples; [ ] = dose if it differs, or a comment. Unless noted, the call rests on the fitted dose curve; in most records, active means well fitted rising curve with a large enough effect; inconclusive means small, poorly fitted or top-dose-only effect; inactive means no such curve, though single readings can be large or run the other way. Potency means the concentration at half of the fitted maximal effect. Rows were taken by chance (roughly 4.8% active in at least one column).
SMILES,SARS PLpro yeast,MARV entry inh,RE007 growth inh,Lassa entry inh,NS1 inh,Cruzain noTriton,StopGo reporter,Cruzain Triton
CC(=O)C1CCC2C3CCC4=CC(=O)CC[C@]4(C)[C@@]3(F)C(O)C[C@]12C (stereo partly drawn),-3%,15%[46.1 µM],8%,0%[46.1 µM],-5%,.,-13%,.
CCn1nnc(NC(=O)c2cccc(-c3cc4ccccc4oc3=O)c2)n1,7%,?,-2%,6%,-18%,1%,0%,-2.2%
CC(NC(=O)COC(=O)C1=NN(c2ccccc2)C(=O)CC1)c1ccccc1 (stereo not drawn),1%,-7%,3%,?,.,.,5%,.
O=S(=O)(NC1CC(NS(=O)(=O)OCC(Cl)(Cl)Cl)C2CCCCC12)OCC(Cl)(Cl)Cl (stereo not drawn),6%,.,-6%,.,16%,.,?,.
Nc1nonc1-n1nnc(C(=O)N/N=C/c2ccoc2)c1-c1ccccc1,-1%,9%[46.1 µM],-9%,12%,8%,.,1%,.
Cc1ccnc(NS(=O)(=O)c2cccc([N+](=O)[O-])c2)c1,-1%,.,-3%,.,-6%,.,39%[activator],.
COCCCn1c(SCC(=O)c2ccccc2)nc2ccccc2c1=O,-7%,10%[46.1 µM],-18%,-1%,.,.,?,.
N#CC1=C(SCc2ccccc2)NC(=O)CC1c1cccc(O)c1 (stereo not drawn),-1%,5%,1%,-2%,1%,1%,.,-1.1%
O=C(O)c1ccc(N2C(=O)C3C4c5ccccc5C(Br)(c5ccccc54)C3C2=O)cc1 (stereo not drawn),-2%,0%[46.1 µM],-13%,-7%,-39%,.,-16%,.
CC(=S)/C=C1\Sc2ccccc2N1C,12%,?,?,-6%,17%,?,.,-16%
COc1ccc(C(CNc2ncnc3sc(C)c(C)c23)N(C)C)cc1 (stereo not drawn),-1%,?,-4%,?,-3%,.,18%,.
CN(Cc1ccccc1)C(=O)Cn1c(=O)c2cccn2c2cccnc21,6%,.,9%,.,-10%,.,-24%,.
CC1OC(c2ccccc2)OC2COC(c3ccccc3)OC12 (stereo not drawn),.,-22%[46.1 µM],-3%,-1%[46.1 µM],.,.,-5%,.
Cc1nnc(NC(=O)c2cccc(S(=O)(=O)N3CCOCC3)c2)s1,0%,10%,34%,-2%,5%,4%,-4%,5.1%
Cn1cccc1/C=C1\SC(=O)N(c2ccccc2)C1=O,-2%,1%,-1%,-11%,2%,-6%,20%,-8.7%

# Pulled by structure from the list above:
SMILES,SARS PLpro yeast,MARV entry inh,RE007 growth inh,Lassa entry inh,NS1 inh,Cruzain noTriton,StopGo reporter,Cruzain Triton
CC(=O)C1CCC2C3CCC4=CC(=O)CC[C@]4(C)[C@@]3(F)C(O)C[C@]12C (stereo partly drawn),-3%,15%[46.1 µM],8%,0%[46.1 µM],-5%,.,-13%,.
Nc1nonc1-n1nnc(C(=O)N/N=C/c2ccoc2)c1-c1ccccc1,-1%,9%[46.1 µM],-9%,12%,8%,.,1%,.

# (listing goes on)
SMILES,SARS PLpro yeast,MARV entry inh,RE007 growth inh,Lassa entry inh,NS1 inh,Cruzain noTriton,StopGo reporter,Cruzain Triton
COc1cc(NC(=O)Cn2nnc(-c3ccncc3)n2)cc(OC)c1,-1%,-22%,-7%,-21%,-5%,-4%,.,-3.3%
COc1ccc(NC(=S)NN2CCN(C)CC2)cc1OC,20%,11%,-11%,-10%,3%,-6%,-9%,2.1%
CCOc1cc(CNC(=O)Cn2c(=O)c3cccn3c3ccc(F)cc32)cc(OCC)c1OCC,.,.,.,-3%[46.1 µM],.,2%,-7%,-1.4%
COc1ccc(OCCN2CCN(C(=O)c3ccc(OC(F)F)c(OC)c3)CC2)cc1,9%,?,12%,-26%[46.1 µM],-4%,.,-28%,.
COc1cc(C(=O)O)ccc1OCc1c(C)noc1C,14%,5%,2%,-9%,2%,9%,4%,4.2%
O=C(CN1CCSC1=O)Nc1ccc(N2CCOCC2)cc1,2%,19%[46.1 µM],3%,10%,.,.,16%,.
CCOC(=O)c1c(O)c2c([nH]c1=O)CCCC2,-3%,-3%,-12%,0%,-4%,-3%,-8%,3.3%
Cc1ccc(-n2c(SCC(=O)Nc3nccs3)nc3c(c2=O)SCC3)cc1,2%,?,4%,-15%,-8%,?,-24%,-1.7%
CC12CCC(=O)N1C(C(=O)N1CCN(c3ccccc3)CC1)CS2 (stereo not drawn),1%,-2%,2%,12%[46.1 µM],.,.,-15%,.
COc1ccc(NC(=S)NCc2ccc(F)cc2)cc1,-3%,.,-2%,.,6%,.,42%[activator],.
CCN(CC)c1ccc(C2C(C(=O)Nc3ccccn3)=C(C)NC3=C2C(=O)CC(C)(C)C3)cc1 (stereo not drawn),-7%,14%,-8%,11%,7%,-12%,49%[activator],-20%
O=Cc1cn[nH]c1-c1ccccc1,-1%,.,-7%,.,-5%,.,9%,.
OCCNc1nc2ccccc2n1-c1ncnc2sc3c(c12)CCC3,3%,11µM*,-8%,?,-1%,-27%,0%,-25%
O=C(N/N=C/c1ccccc1O)c1cccc2ccccc12,?,.,-6%,.,21%,.,34%[activator],.
NS(=O)(=O)c1cc(C(=O)Nc2ccc3c(c2)CCC3)ccc1Cl,-5%,?,26%,?,8%,.,11%,.
COc1ccccc1NC(=O)N1CCN(c2nnc(C)c3c(C)n(-c4ccccc4)nc23)CC1,.,.,.,-5%[46.1 µM],.,2%,0%,-10%
CN(C)S(=O)(=O)c1ccc(N2CCCC2)c(C(=O)NCC2CCCO2)c1 (stereo not drawn),-4%,10%,0%,25%,.,.,-7%,.
CC(C)(C)c1ccc(OCC(=O)NCC(c2cccs2)N2CCOCC2)cc1 (stereo not drawn),1%,?,13%,?,.,.,?,.
Cc1nn(-c2ccccc2)c2c1C(c1ccncc1)C(C#N)=C(N)O2 (stereo not drawn),1%,-5%[46.1 µM],?,0%,10%,-2%,-24%,-2.4%
CCC/C=C(\CCC)C(NS(=O)(=O)c1cccc2cccnc12)c1ccc(C(=O)OC)cc1 (stereo not drawn),-24%,?,1%,?,6%,-6%&-2%,58%[activator],-7.2%&-5.0%
Cc1cccnc1NC(=O)C1CCC1,-6%,18%,-7%,24%,0%,.,-11%,.
Cc1cc(SCC(=O)N/N=C/c2ccc(C(=O)O)cc2)nc2ccccc12,1%,20%[46.1 µM],1%,27%[46.1 µM],4%,.,1%,.
CSc1ncc(C(=O)Nc2cccnc2)c(C(F)(F)F)n1,1%,-7%[46.1 µM],-8%,14%[46.1 µM],2%,.,-10%,.
CN(C)c1ccc(-c2nnc3n(Cc4ccccc4)c(=O)c4ccccc4n23)cc1,.,-7%[46.1 µM],.,18%[46.1 µM],.,3%,-25%,-3.3%
CCNC(=O)c1c(NC(=O)c2cc(-c3cc(C)ccc3O)n[nH]2)sc2c1CCCC2,11%,?,-4%,22%,18%,?,-21%,-3.1%
O=C(Nc1ccc(Cl)cc1Cl)c1cc(S(=O)(=O)N2CCCCCC2)ccc1F,.,.,.,0%[46.1 µM],.,-11%,-15%,1.4%
COCCSc1nnc(NS(=O)(=O)c2ccc(C)cc2)s1,0%,?,3%,-16%,1%,.,19%,.
OC1(c2cccc(C(F)(F)F)c2)CCN(c2ccc(-c3ccccc3)nn2)CC1,-4%,13%,-12%,?,3%,18%,50%[activator],-7.6%
COC(=O)c1ccc2c(c1)nc(C)n2CCO,2%,?,-8%,10%,4%,-2%,21%,1.0%
CCOC(=O)c1sc(=NC(=O)c2ccc(OC)c(OC)c2)n(C)c1C,1%,1%&12%,3%,-4%,9%,-7%,.,-1.4%
Cc1cccc(Nc2ccccc2C(=O)OCC(=O)N2CCOCC2)c1C,-2%,?,7%,?,-59%,?,0%,-5.9%
CCc1ccc(N(C(=O)c2csnn2)C(C(=O)NC(C)(C)C)c2ccccn2)cc1 (stereo not drawn),-2%,?,-5%,23%[46.1 µM],4%,.,44%[activator],.
C=CCOc1c(CNc2ccc(C(=O)O)cc2)cccc1OC,4%,4%,-13%,11%,-6%,3%,10%,-5.3%
COc1ccc(CNC(=O)CN(C)Cc2ccc(C(C)(C)C)cc2)cc1,1%,-9%,-3%,?,-5%,.,-27%,.
CCOc1ccccc1NC1=NC2CS(=O)(=O)CC2S1 (stereo not drawn),4%,.,-6%,.,8%,.,-3%,.
O=c1cc(CO)occ1OCc1cccc(C(F)(F)F)c1,-14%,?,-21%[3.69 µM],1%,-7%,-3%,5%,4.0%
CCOc1ccc(C(C)=O)cc1Cn1ccsc1=N,1%,3%,-1%,6%,2%,.,4%,.
O=C(Nc1ccc(F)c(Cl)c1)C1CC(=O)N(Cc2ccco2)C1 (stereo not drawn),-2%,2%,-11%,-2%,.,.,-13%,.
COc1ccc(CCNC(=O)c2ccc(Cn3c(=O)[nH]c4cc(OC)c(OC)cc4c3=O)cc2)cc1OC,.,27%[46.1 µM],.,-10%[46.1 µM],.,?,-15%,-4.5%
CC1(C)CN=C(N(Cc2ccccc2)C(=O)Nc2ccccc2)S1,11%,?,-11%,4%,-10%,14%,14%,-4.7%
COc1ccc(CNc2nc3ccccc3n2C(C)C)c(O)c1,-1%,-46%,-10%,-20%,6%,.,?,.
O=C1CCCC(=O)C1=Cc1c[nH]c2ccccc12,3%,?,25%,5%,-2%,6%,0%,-6.9%
CCc1[nH]nc2c1C(c1cccnc1)C(C#N)=C(N)O2 (stereo not drawn),.,-3%,3%,2%,2%,-1%,35%[activator],2.9%
COc1cc(C(=O)Nc2ccccc2-c2nnn(CC(N)=O)n2)cc(OC)c1OC,14%,3%,26%,0%,-6%,3%,-2%,0.6%
NC(=O)/C=C/C(=O)Nc1ccc(Cl)cc1,-33%,?,11µM*,?,.,.,0%,.
CCCN(C(=O)Cn1cnc2sc(C)c(S(=O)(=O)N3CCN(c4ncccn4)CC3)c2c1=O)c1cccc(C)c1,.,35%[46.1 µM],.,-9%[46.1 µM],.,2%,-32%,-2.6%
COc1cccc(NC(=O)c2ccc(NCCCN3CCC(C)CC3)c([N+](=O)[O-])c2)c1,-1%,4µM*,-17%,-15%[46.1 µM],.,.,-3%,.
CC(=O)c1c(N)n(C)c(=O)n(C)c1=O,-7%,8%,-13%,-7%,4%,7%,.,-1.2%
